Assay outcomes from PubChem.
Bead autofluor: counter-screen for toxin protease inhibitors: compound fluorescence; compound autofluorescence counterscreen, microsphere flow cytometry; active compounds read high; 360,000 compounds, 3.1% hits; AID 624483; fluorescence intensity (no concentration beside the values);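 active = at least 3 SD above the mean of all compounds, about 16000 in these data; inconclusive = too few beads counted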;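 note: 100 nL of 1 mM stock went into each well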
Mtb hypoxia rep: Mtb hypoxia fluorescent reporter inhibition; M. tuberculosis hypoxia-regulated fluorescent reporter, fluorescence; 300,000 compounds, 0.1% hits; AID 1159583; fluorescence inhibition, % (no concentration beside the values);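 active = 35 to 45% if threefold the growth effect, above 45% if 1.5-fold the growth effect; inactive = the rest, general growth blockers included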;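 note: wells of about 50 µL received 100 nL stock; 0% = vehicle wells and 100% = reference inhibitor wells; whole bacteria with a GFP reporter of the hypoxia response; strong numbers were not always called active; many hits fall short of the cut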
Sa ugtP lethal: compounds lethal to S. aureus RN4220 ugtP deletion mutant | OD600 growth, 16 h; some inactives read as strong as hits | growth inhibition, % (no concentration beside the values) | 330,000 compounds, 0.54% hits;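 active = z-score under -3 and OD600 up to 0.15 on both plates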;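 note: plate controls were untreated wells for no effect and antibiotic for full effect; wells of about 80 µL received 100 nL stock; the first replicate is given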
PrP 5UTR inh: inhibition of PrP 5' UTR reporter expression | cell-based PrP 5' UTR mRNA reporter, plate reader | inhibition, % (concentration not given with the values) | 340,000 compounds, 0.35% hits;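 active = every replicate at 50% or more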;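 note: 0 = median of the neutral control wells; tested in H4 reporter cells; numbers are from one replicate; inactives centre near -14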
Sa RN4220 lethal: S. aureus RN4220 growth inhibition | OD600, 16 h | inhibition, % (no concentration beside the values) | 330,000 compounds, 0.33% hits;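 active = z-score of -3 or lower and OD600 up to 0.18 on both plates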;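 note: plate controls were untreated cells for no effect and reference antibiotic for full effect; stock transfer was 100 nL into about 80 µL; one replicate is shown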
BJeLR lethal: BJeLR cell viability loss | inhibition, % (concentration not given with the values) | 300,000 compounds, 0.17% hits | AID 1554 | BJeLR (HRASV12) viability, CellTiter-Glo ATP luminescence, 48 h; reference of the scale not given here;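 active = replicate mean above 50%; inconclusive = above 50% but judged a plate artefact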;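 note: 50 nL library stock added to about 25 µL; numbers are from one replicate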
Mtb hypoxia rep growth: further read-out of Mtb hypoxia rep, marked with its call; growth inhibition, %; measured here: M. tuberculosis growth (absorbance);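 0% = vehicle and 100% = reference antibiotic; read after six days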
* marks the source's active call; other numbers are inactive results; ? = inconclusive; · = no result given.

SMILES	Bead autofluor	Mtb hypoxia rep	Mtb hypoxia rep growth	Sa ugtP lethal	PrP 5UTR inh	Sa RN4220 lethal	BJeLR lethal
CCCCCCSc1ccc([C@H]2N[C@@](C)(C(=O)OC)[C@H]3C(=O)N(C)C(=O)[C@@H]23)cc1	4079	·	·	·	-18	·	13
Cc1ccc(/C=C/c2onc(C)c2S(=O)(=O)N2CCC(C(=O)N3CCN(C)CC3)CC2)cc1	6042	4	2	2	3	2.0	8
O=S(=O)(Nc1cccc(S(=O)(=O)N2CCCC2)c1)c1cccc(Br)c1	?	3	0	-3	·	12	·
CC(C)C(C)(C#N)NC(=O)CSc1ncnc2sc(-c3ccccc3)cc12 (configuration not stated)	5857	4	-2	-2	-14	21	4
CCOc1ccc(NC(=O)N(CCN2CCOCC2)Cc2ccc3c(c2)CCCN3CC)cc1	3657	21	7	-8	-7	-12	2
Cc1ccc(NC2=NC(c3ccccc3)n3c(nc(C)cc3=O)N2)cc1 (configuration not stated)	3907	-6	3	3	-17	2.1	-16
O=C(NCCN1CCOCC1)c1cccc2c1C(=O)c1ccc(N3CCCC3)cc1S2(=O)=O	3018	20	11	1	9	4.4	·
CN(CC(=O)NCCN1CCOCC1)S(=O)(=O)c1ccc(Cl)cc1	3092	6	3	10	-6	3.7	·
COc1cc(C(=S)N2CCOCC2)ccc1OS(=O)(=O)c1ccc(Cl)cc1	3678	-12	-3	-4	-150	0.4	-6
OC(CCN1CCCCC1)(c1ccccc1)c1ccccc1	4390	2	5	6	9	1.6	8
O=C(O)[C@H](Cc1ccccc1)N1C(=O)c2ccncc2C1=O	10190	9	2	17	-10	6.6	1
Cc1csc(NC(=O)c2ccccc2C(=O)O)n1	?	1	0	-2	-11	3.0	2
CCN(C(=O)CSc1nnnn1C)C1CCCCC1	3717	-19	9	-1	-3	-2.2	·
CN(C)c1nc(NCc2ccccc2)nc(NN=Cc2ccc(Cl)cc2Cl)n1	·	1	3	-9	·	-5.1	·
O=C1C(O)=CC(=C(c2ccccc2)c2ccccc2)c2ccccc21	3748	19	12	60	-24	7.2	·
COc1ccccc1Nc1nc(N)nc(CSc2nc(C)cc(C)n2)n1	9387	6	12	0	-19	3.8	-25
NP(=O)(OCC(F)(F)F)Oc1cccc2ccccc12 (configuration not stated)	2385	2	-6	2	-4	-0.7	-8
CCOC(=O)CSc1ccc(S(=O)(=O)N(CC)CC)cc1[N+](=O)[O-]	4893	9	21	7	-4	7.3	2
O=C(NCc1cccc(C(F)(F)F)c1)C1CC(c2c(Cl)cccc2Cl)=NO1 (configuration not stated)	4030	16	15	4	1	2.9	-7
COc1ccc(NC(=S)N2CCC(Cc3ccccc3)CC2)cc1OC	6168	-9	-6	-2	-7	0.9	11

The closing two compounds of the section before open the next one:
SMILES	Bead autofluor	Mtb hypoxia rep	Mtb hypoxia rep growth	Sa ugtP lethal	PrP 5UTR inh	Sa RN4220 lethal	BJeLR lethal
O=C(NCc1cccc(C(F)(F)F)c1)C1CC(c2c(Cl)cccc2Cl)=NO1 (configuration not stated)	4030	16	15	4	1	2.9	-7
COc1ccc(NC(=S)N2CCC(Cc3ccccc3)CC2)cc1OC	6168	-9	-6	-2	-7	0.9	11
Cc1cc(F)ccc1S(=O)(=O)Nc1ccc(C(=O)N(C)Cc2ccco2)cc1	4051	2	1	3	-32	1.3	·
COCCn1c(SCC(=O)c2ccc(F)cc2)nnc1C(C)C	4654	·	·	5	-10	0.8	-2
O=C(Cn1c(=O)c(=O)n(Cc2ccccc2)c2ccc(Cl)cc21)Nc1cccc(F)c1	2117	12	3	2	-7	0.3	-8
COc1ccnc(Oc2cc(Cl)cc(Cl)c2)c1C#N	4125	8	8	-4	-5	7.6	-5
NS(=O)(=O)c1cc(C(=O)O)c(NCc2ccco2)cc1Cl	6063	3	4	4	-27	3.8	2
Nc1[nH]n(-c2ccccc2)c(=O)c1N=Nc1ccc2c(c1)OCCO2	3123	15	14	3	-80	-3.5	20
O=C(Nc1cnccc1C(F)(F)F)NC1CCCCC1	5913	9	4	9	-17	2.3	5
CCOc1ccc(NC(=O)C2CC(C)=C(C)CC2C(=O)O)cc1 (configuration not stated)	2658	12	10	-6	-8	-14	11
S=C(Nc1cccc(Cl)c1)NC1CCCCC1	3093	-1	15	-16	-13	-7.6	10
Clc1ccc(Cc2ccccn2)cc1	6221	7	2	8	-1	4.7	·
Cc1cc(C)c(C)c(S(=O)(=O)N2CCN(c3ccccn3)CC2)c1C	5656	11	-1	2	-9	26	-3
CCOC(=O)c1cnc2c(c(C)nn2CC)c1Cl	4386	2	7	5	0	7.6	-4
Cc1c(C(C)C)c(=O)n(-c2ccc(S(=O)(=O)NC3CC3)cc2)n1C	4456	6	12	4	-10	5.1	6
COC(=O)c1c(C(=O)OC)c(-c2cccc(C)c2)n2c1CS(=O)(=O)C2	3161	4	-2	-10	0	9.7	-5
O=C(COC(=O)c1cccc(F)c1)Nc1ccc(Cl)cn1	3523	4	-6	6	-18	4.2	·
Cc1cc(CSc2nc(C)cc(=O)[nH]2)c2ncccc2c1	3337	5	-1	-4	-106	7.4	-2
Cc1ccc2c(c1)N(C(=O)CCC(=O)N1CCN(c3ccccn3)CC1)CCO2	4476	5	-8	4	-16	5.4	-5
Cc1c(C)c2c(c(C)c1O)CC[C@@](C)(CCC[C@H](C)CCC[C@H](C)CCCC(C)C)O2	5556	·	·	·	-5	·	1
N#CCCN(C(=O)Nc1ccccc1)c1ccccc1	2384	·	·	11	-3	5.8	-2
Cc1nc2ccccc2c(=O)n1/N=C/c1cc(Br)cc(Br)c1O	5123	·	·	·	-3	·	-7
O=C(CCc1ccc(S(=O)(=O)N2CCOCC2)cc1)Nc1nc(COc2ccccc2)cs1	22376*	1	3	1	-17	2.5	25
Cc1cc(-c2ccccc2)nc(N/N=C/c2ccccc2F)n1	3261	·	·	·	-25	·	2
CCC(C)c1ccc(S(=O)(=O)N2CCN3CCCC3C2)cc1 (configuration not stated)	5254	10	2	6	0	5.0	-10
Cc1ccc2c(c1)N(CC(=O)Nc1nccs1)C(=O)CO2	5851	5	-8	8	-33	5.1	·
Cc1cc(C)cc(OCC(=O)NN2Cc3ccccc3C2=N)c1	5128	·	·	4	-33	1.8	0
O=C(/C=C/c1ccccc1)NCC(=O)NN=Cc1cccs1	·	11	11	3	·	3.3	·
CC1CCC(NC(=O)CC2Oc3ccccc3NC2=O)CC1 (configuration not stated)	4996	·	·	5	-22	-0.8	-3
CSc1nc(C)c(CCO)c(=O)[nH]1	4857	-1	16	3	-19	1.4	-4
CCCSc1nc(NCc2ccco2)c2c3c(sc2n1)COC(C)(C)C3	17467*	-4	-4	15	9	-4.5	-13
Cc1cc(C2=NNC(=Nc3ccc(S(=O)(=O)N4CCOCC4)cc3)SC2)c(C)n1CC1CCCO1 (configuration not stated)	3871	-7	2	-5	-7	2.7	3
Cc1c(Cl)cccc1NC(=O)C1CC2CCC1C2 (configuration not stated)	·	6	6	7	·	4.0	-7
CCOC(=O)c1ccc(CSC(=N)N)o1	4333	11	-2	3	-16	-1.6	5
CCC(C)NC(=O)c1ccc(NC(=O)CC2SC(N3CCCC3)=NC2=O)cc1 (configuration not stated)	2965	-4	-7	7	-1	5.4	·
CC(C)(C)c1ccc(OCC(=O)Nc2ccncc2)cc1	4012	10	11	8	-21	8.3	-5
CC(C)c1ccc(NC(=O)C2CCC(CNC(=O)[C@@H]3Cc4ccccc4CN3)CC2)cc1 (some centres not stated)	7132	6	-2	-1	-24	-1.7	-1
COc1cccc(NS(=O)(=O)c2ccc(C)c(C(=O)N3CCCCC3)c2)c1	5798	5	-6	5	-12	4.0	6
COC(=O)C1=CN(Cc2cccs2)C=C(C(=O)OC)C1c1cccc(O)c1	4011	-6	2	-3	-21	1.4	-1
C=CCn1c(O)c(C=Nc2ccc(OC)cc2C)c(=O)[nH]c1=O	3333	·	·	3	55*	-7.4	0
CC(=O)c1ccc(NC(=O)c2ccc3snnc3c2)cc1	6213	3	-6	-3	-38	-1.9	5
CCCn1c(SCC(=O)N2CCCc3ccccc32)nc2c1c(=O)n(C)c(=O)n2C	21086*	1	9	-9	0	3.3	·
CC(=O)Nc1ccc(NC(=O)C(C)ON=Cc2cccc([N+](=O)[O-])c2)cc1 (configuration not stated)	·	-11	-1	-12	·	-2.6	·
CN(C)S(=O)(=O)c1cc(C(=O)N2CCC(C(=O)O)(c3ccccc3)CC2)ccc1Cl	3600	-3	4	19	3	3.6	-1
CC(=O)c1cccc(NS(=O)(=O)c2ccc3c(c2)N(C(C)=O)CCO3)c1	5871	-2	-7	3	-10	5.4	-1
COc1ccc(Br)c(C(=O)NCCC(C)C)c1	2022	·	·	1	-17	2.2	-5
CCOC(=O)N1CCN(C(=O)c2cc3c(-c4ccc(Cl)cc4)nn(C)c3s2)CC1	4040	·	·	6	-21	-0.8	10
CCCNC(=O)c1onc(CSc2ccc(Cl)cc2)c1C(=O)NCCC(C)C	2817	·	·	·	-15	·	-8
CCN(CC)CCN1C(=O)C(=O)/C(=C(/O)c2ccc(OC(C)C)cc2)C1c1cccs1 (configuration not stated)	3845	5	-1	3	-27	1.3	3
CCOC(=O)c1ccc(NC(=O)CC2SCCNC2=O)cc1 (configuration not stated)	4369	-1	5	4	-17	3.5	-5
Cc1ccccc1NC(=O)CSCC(=O)Nc1ccccc1C	8910	17	8	7	-21	2.7	0
COc1ccc(-c2csc(NC(C)c3nc4cc(Cl)c(N5CCCCC5)cc4n3CCCO)n2)cc1 (configuration not stated)	4372	-8	1	0	-6	-1.3	0

New compounds follow
SMILES	Bead autofluor	Mtb hypoxia rep	Mtb hypoxia rep growth	Sa ugtP lethal	PrP 5UTR inh	Sa RN4220 lethal	BJeLR lethal
Cc1cccc(-c2ncc(CN3CCCC(CO)(Cc4cccc(Cl)c4)C3)cn2)c1 (configuration not stated)	6609	-8	-7	15	-26	-1.7	1
O=c1[nH][nH]c(=O)n1-c1ccccc1	4121	8	-4	6	-22	2.9	-3
CCOC(=O)c1c(NC(=O)CSc2nc3cc(Cl)ccc3c(=O)n2Cc2ccco2)sc(C(=O)N(C)C)c1C	2757	10	1	-25	17	0.2	-15
CC(=O)N1CCN(c2nnc(-c3ccccc3)c3ccccc23)CC1	3577	-8	0	-12	-5	-5.8	-12
O=C(NC(=S)N(CCO)Cc1ccccc1)c1ccc(F)cc1Cl	3825	1	7	2	-19	3.7	-5
COc1ccc(CCNC2=NCC(C)S2)cc1 (configuration not stated)	3136	14	14	11	-6	3.7	-8
CCn1c(C)cc(/C=C2\SC(=O)N(CC(=O)Nc3ccc(C)c(C)c3)C2=O)c1C	3913	7	5	16	-24	0.2	-3
C/C(=N/NC(=O)CN1CCN(S(=O)(=O)c2ccc(C)cc2)CC1)c1cccc(O)c1	3976	·	·	·	-6	·	-3
O=C(Cc1ccccc1)Nc1ccc(S(=O)(=O)N2CCCC2)cc1	3794	3	8	3	-12	2.7	-2
COc1ccc(CNC(=O)COC(=O)c2cc(C)nc3ccccc23)cc1	3945	15	4	9	-17	-5.0	·
COc1cc(C(=O)NCCCc2ccccc2)cc(OC)c1OC	3507	-1	-4	-3	-11	0.6	-7
CCCCn1c(N)c(N(CCOC)C(=O)c2ccc(COc3ccccc3)o2)c(=O)[nH]c1=O	5863	15	3	3	-6	1.9	1
COc1ccc(C(=O)NCc2nnc(SCC(=O)Nc3cc(Cl)ccc3OC)o2)cc1	4687	3	4	-7	-19	-5.1	0
Cc1c(NC(=O)c2ccccc2)cccc1[N+](=O)[O-]	1978	5	1	4	-6	1.0	4
CN(C)c1ccc(NC(=O)/C=C/c2c(Cl)cccc2Cl)cc1	2665	·	·	·	-108	·	5
COC(=O)C1=C(c2cc3ccccc3o2)C[C@@H]2CC[C@H]1N2C(=O)NCc1ccc(F)cc1	3945	·	·	·	0	·	3

Outcome played no part in choosing rows (roughly 4% active in at least one column).
